Sa RN4220 lethal: S. aureus RN4220 growth inhibition. inhibition, % (test concentration not listed). OD600, 16 h. 0.33% of 330,000 active. AID 1259311;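 active = z-score of -3 or lower and OD600 up to 0.18 on both plates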;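 note: plate controls were untreated cells for no effect and reference antibiotic for full effect; stock transfer was 100 nL into about 80 µL; one replicate is shown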
Bead autofluor: flagged as autofluorescent in microsphere protease counterscreen; compound autofluorescence counterscreen, microsphere flow cytometry; hits give high values; fluorescence intensity (concentration not given with the values); 3.1% of 360,000 active; AID 624483;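 active = at least 3 SD above the mean of all compounds, about 16000 in these data; inconclusive = too few beads counted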;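 note: 100 nL of 1 mM stock went into each well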
BJeLR lethal: kills HRASV12-expressing BJeLR cells | BJeLR (HRASV12) viability, CellTiter-Glo ATP luminescence, 48 h; reference of the scale not given here | inhibition, % (concentration not given with the values) | 0.17% of 300,000 active;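 active = replicate mean above 50%; inconclusive = above 50% but judged a plate artefact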;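 note: 50 nL library stock added to about 25 µL; numbers are from one replicate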
ugtP null kill: kills S. aureus RN4220 lacking UgtP | 0.54% of 330,000 active | S. aureus RN4220 ugtP deletion, OD600 growth, 16 h; some inactives read as strong as hits | growth inhibition, % (concentration not given with the values) | AID 1259309;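 active = z-score under -3 and OD600 up to 0.15 on both plates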;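 note: plate controls were untreated wells for no effect and antibiotic for full effect; wells of about 80 µL received 100 nL stock; the first replicate is given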
Mtb hypoxia inh: inhibitors of hypoxia-regulated fluorescent reporter in Mycobacterium tuberculosis | fluorescence inhibition, % (no concentration beside the values) | M. tuberculosis hypoxia-regulated fluorescent reporter, fluorescence | AID 1159583 | 0.1% of 300,000 active;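 active = 35 to 45% if threefold the growth effect, above 45% if 1.5-fold the growth effect; inactive = the rest, general growth blockers included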;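 note: wells of about 50 µL received 100 nL stock; 0% = vehicle wells and 100% = reference inhibitor wells; whole bacteria with a GFP reporter of the hypoxia response; strong numbers were not always called active; many hits fall short of the cut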
PrP 5UTR inh: suppresses PrP 5' UTR mRNA reporter expression. cell-based PrP 5' UTR mRNA reporter, plate reader. inhibition, % (no concentration beside the values). 0.35% of 340,000 active;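 active = every replicate at 50% or more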;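 note: 0 = median of the neutral control wells; tested in H4 reporter cells; numbers are from one replicate; inactives centre near -14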
Mtb hypoxia inh growth: further read-out of Mtb hypoxia inh, marked with its call; growth inhibition, %; measured here: M. tuberculosis growth (absorbance);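 0% = vehicle and 100% = reference antibiotic; read after six days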
An asterisk follows results filed as active; ? = inconclusive; . = not tested or not shown.

Order of values – Sa RN4220 lethal	ugtP null kill	BJeLR lethal	PrP 5UTR inh	Mtb hypoxia inh growth	Bead autofluor	Mtb hypoxia inh
1: CC(=NNC(=O)CCCOc1ccc(Cl)cc1C)c1ccc(C)o1
    1.8	1.2	.	.	4.2	.	8.3
2: COc1ccc(C(F)(F)F)cc1N/C=C\c1nnnn1-c1ccc(C)cc1
    -2.4	-19.8	-4.7	-9.8	14.4	10602	1.7
3: Cc1ccccc1SCC(=O)Nc1cc(S(=O)(=O)N2CCOCC2)ccc1N1CCOCC1
    4.3	20.6	2.1	-8.5	9.4	4488	-2.9
4: CCn1c(-c2ccc3ncccc3c2)n[nH]c1=S
    4.2	3.2	0.9	-13.3	6.5	9522	15.6
5: O=C(c1noc2c1CCc1ccccc1-2)N1CCOCC1
    3.8	8.2	-31.8	-34.6	0.8	8193	6.9
6: OCC1OC(OC2C(CO)O[C@@](O)(CO)C2O)C(O)C(O)C1O (some centres undefined)
    8.6	-2.6	.	.	3.1	.	7.4
7: CN(C)S(=O)(=O)N1CCN(c2ccccc2Cl)CC1
    5.9	9.5	-3.3	1.0	6.5	9039	13.2
8: COc1cccc(-c2cc(=O)[nH][nH]2)c1
    7.6	-2.0	-9.6	-28.1	-9.7	4501	6.5
9: O=C(COc1ccc(Br)cc1CO)N1CCCc2ccccc21
    6.0	-0.6	-9.5	-12.3	4.6	3610	-8.5
10: CN(CC(=O)Nc1ccc(S(=O)(=O)N2CCCC2)cc1)CC(=O)Nc1cccc(F)c1
    5.6	20.2	0.6	-17.4	3.7	4626	0.0
11: CCC/C(=N\NC(=O)c1ccc(OC)c(OC)c1)c1ccccc1
    .	.	5.7	-37.4	.	4481	.
12: O=C(Nc1ccc(Cl)cc1C(=O)NCC1CCCO1)c1ccc(Cl)cc1Cl (centres undefined)
    3.5	-2.0	-6.7	-23.9	14.2	2486	2.0
13: CCOC(=O)C1CCN(C(=O)c2cccnc2Cl)CC1
    7.2	6.0	7.5	-19.4	9.2	20039*	17.1
14: Cc1cc(O)c(/C=N/Nc2cccc(Cl)c2)c(=O)o1
    .	.	-3.1	-36.0	.	2418	.
15: O=C(Nc1ccccc1)/C(=C\c1ccco1)NC(=O)c1ccco1
    1.7	12.7	-4.8	-17.8	-0.3	5957	-5.2
16: O=C1C2CCCN2C(c2ccc(Cl)c(Cl)c2)N1c1ccccn1 (centres undefined)
    0.0	-5.0	-4.0	-12.4	3.6	4249	5.2
17: COc1ccccc1N1CCN(C(=O)CN(C2CCCCC2)S(C)(=O)=O)CC1
    19.9	8.9	1.9	-17.0	7.6	4387	2.5
18: Cc1c(O)ccc(C(=O)CN2C(=O)c3ccccc3C2=O)c1O
    2.9	-6.9	-17.3	-7.3	10.6	3426	5.5
19: CCCC(=O)Nc1nc2ccc(S(N)(=O)=O)cc2s1
    1.3	3.7	-1.7	-26.6	18.3	5523	4.8
20: CCOC(=O)CSc1nnc(NCC(=O)OC)c(=O)[nH]1
    1.4	-2.1	1.8	-18.4	11.8	21379*	13.9
21: CCc1cc(=O)[nH]c(SCCC(F)=C(F)F)n1
    4.5	-6.0	-3.7	-16.3	-3.4	5675	1.0
22: COc1ccccc1CNC(=O)COC(=O)c1cc(-c2ccco2)nc2ccccc12
    4.9	-3.4	-9.8	-19.4	3.6	12763	-4.5
23: CC1=C(C(=O)Nc2ccccc2)C(c2ccc(C)o2)n2c(s/c(=C/c3ccccc3)c2=O)=N1 (centres undefined)
    .	.	-1.7	-6.7	.	3188	.
24: CCOC(=O)Cc1csc(NC(=O)c2ccc(C)c(S(=O)(=O)N3CCOCC3)c2)n1
    3.9	-7.5	.	-23.1	-2.7	2868	2.5
25: COCc1nnc(NC(=O)CCN2C(=O)c3ccccc3C2=O)s1
    4.5	-1.8	-17.3	11.6	-4.8	8010	-6.2
26: CCSc1ccc([C@@H]2[C@@H]3C(=O)N(CC)C(=O)[C@@H]3[C@]3(C(=O)OC)CCCCN23)cc1OC
    .	.	1.6	-9.3	.	3152	.
27: O=C(Nc1cccc(NC(=O)c2cccc(F)c2)c1)c1ccccc1
    7.3	3.5	-4.6	-12.6	6.1	3670	-3.4
28: CSc1cccc(NS(=O)(=O)c2cc(Br)cnc2N)c1
    9.2	4.2	2.4	-2.6	8.9	5460	2.4
29: COc1ccc([C@@H](C)NC(=O)CCc2nnc(-c3cc(C)on3)o2)cc1
    -0.9	2.2	10.5	-15.7	-3.1	4664	2.2
30: COc1ccccc1NC(=S)N(c1ccccc1)C(C)C
    1.2	-1.4	0.5	-17.3	9.6	4659	7.1

Reprinted from the part before: three entries, then new ones.
Order of values – Sa RN4220 lethal	ugtP null kill	BJeLR lethal	PrP 5UTR inh	Mtb hypoxia inh growth	Bead autofluor	Mtb hypoxia inh
28: CSc1cccc(NS(=O)(=O)c2cc(Br)cnc2N)c1
    9.2	4.2	2.4	-2.6	8.9	5460	2.4
29: COc1ccc([C@@H](C)NC(=O)CCc2nnc(-c3cc(C)on3)o2)cc1
    -0.9	2.2	10.5	-15.7	-3.1	4664	2.2
30: COc1ccccc1NC(=S)N(c1ccccc1)C(C)C
    1.2	-1.4	0.5	-17.3	9.6	4659	7.1
31: O=C(N/N=C/c1ccccc1O)c1cc[n+]([O-])cc1
    .	.	2.1	1.2	.	3162	.
32: Cc1ccc(CS(=O)(=O)CCC(=O)N2CCC3(CC2)OCCO3)cc1
    1.4	4.6	-4.1	-11.5	2.7	11722	-4.8
33: CN1CCN(Cc2nc3c(c(=O)[nH]c(=O)n3C)n2Cc2c(F)cccc2Cl)CC1
    7.0	9.6	3.5	-5.0	8.9	5966	12.0
34: COc1ccc(CCC(=O)N2CCCC(Nc3ccccc3)C2)cc1OC (centres undefined)
    .	.	0.8	-0.7	.	4635	.
35: O=C(C1=C[C@@H](c2ccccc2)C[C@@H](OCc2ccc(CO)cc2)O1)N1CCCCCCC1
    .	.	5.2	-20.3	.	3409	.
36: Cc1ccc(-n2cc(CN3CCCN(C=O)CC3)c(-c3ccc(F)cc3)n2)cc1
    1.1	22.8	5.7	-8.9	-2.0	2489	7.5
37: Cc1ccc(NC(=O)CSc2nnc3n2CCCCC3)cc1
    2.9	2.8	-10.5	-3.7	6.1	2106	5.5
38: CC(=O)Nc1ccc(S(=O)(=O)Nc2nc3ccccc3nc2-n2ccc(=NC(=O)c3ccc(F)cc3)cc2)cc1
    .	.	6.3	-4.2	.	3542	.
39: S=C(Nc1ccccc1Cl)N1CCOCC1
    5.0	1.0	-1.9	-15.4	3.0	2427	7.9
40: Cc1ccsc1/C=N/NC(=O)C1CC(=O)N(c2ccc(F)cc2)C1 (centres undefined)
    .	.	-8.7	-10.2	.	6244	.
41: Cc1cccc(C(=O)OCC(=O)NCC(C)C)c1O
    7.6	4.8	6.7	-7.9	-13.3	3642	-8.0
42: CCN1CCN(C(CC(C)C)c2nnnn2CS(=O)(=O)c2ccc(C)cc2)CC1 (centres undefined)
    4.4	-0.1	7.0	-18.0	3.9	3576	7.2
43: CCOC(=O)[C@@H]1[C@H]2COc3ccc(Br)cc3[C@@H]2N2C(=O)N(c3ccccc3)C(=O)[C@]12C
    -11.6	-3.8	-2.5	-10.8	1.0	3018	4.9
44: COc1ccc(N2CCN(C(=O)CNC(=O)c3cccc(Br)c3)CC2)cc1
    -6.4	15.3	-14.4	-25.4	8.6	3666	-2.0
45: CCOC(=O)c1nn(-c2ccc(Cl)cc2)c(C)cc1=O
    -6.9	-2.5	3.5	-15.3	-14.0	3881	-6.4
46: CN(C)c1ccc(CC2C(=O)Nc3ccccc32)cc1 (centres undefined)
    3.6	0.3	3.2	-9.1	1.5	4447	4.1
47: CCOc1cc(N2CCOCC2)c(OCC)cc1NC(=O)CN1C(=O)NC(C)(C2CC2)C1=O (centres undefined)
    -0.2	6.6	6.5	-2.9	15.1	4478	13.2
48: Cc1cccc(NC(=O)/C(C#N)=C/c2ccc(F)cc2)n1
    1.8	-2.5	0.9	-25.0	5.1	3681	4.3
49: Cc1ccsc1CNCCc1ccccc1F
    4.8	2.1	0.4	-16.6	4.5	3950	-0.9
50: CCOC(=O)Nc1cccc(NC(=O)c2ccccc2F)c1
    1.8	-12.3	8.4	-8.6	-2.4	4437	-7.1
51: O=C(CCN1C(=O)C(=Cc2ccc3c(c2)OCO3)SC1=S)NNC(=O)c1cccnc1
    4.9	7.9	.	.	-0.2	.	-4.4
52: O=C(NCC1CCCO1)c1ccc2c(=O)n(-c3ccc(F)cc3)c(=S)[nH]c2c1 (centres undefined)
    1.6	-8.9	33.2	-1.8	4.6	4139	-8.5
53: CCCN1CCc2c(sc3nc(SCC)n(-c4ccccc4)c(=O)c23)C1
    1.2	7.4	15.2	-18.0	-1.1	5969	0.3
54: COc1ccc(C2C(C(=O)O)CC(=O)N2C2CCCCC2)cc1 (centres undefined)
    4.9	0.9	4.2	-6.6	3.4	20476*	2.0
55: O=C(c1ccc(F)cc1F)N1CCN(S(=O)(=O)c2ccc3c(c2)OCCO3)CC1
    -0.6	1.6	.	-11.2	7.5	8540	4.1
56: O=C(NNc1c(F)c(F)cc(F)c1F)c1ccc(Cl)nc1
    1.0	3.5	-9.0	-8.3	1.6	5116	8.9
57: CCN(CC)C(=O)Oc1nnc(SC(C)C)n1-c1ccc(Cl)cc1
    1.0	3.7	3.7	-21.1	1.2	4532	6.0
58: CCO[C@@H]1OC(C(=O)N2CCN(Cc3ccccc3)CC2)=C[C@H](c2ccccc2)[C@H]1CCCO
    .	.	7.8	4.0	.	3715	.
59: NC(=O)C1(NC(=O)[C@@H]2CC3(CC(c4cccc(NC(=O)[C@@H]5CCC(=O)N5)c4)=NO3)CN2C(=O)c2ccccc2)CC1 (some centres undefined)
    .	.	17.6	-2.1	.	3922	.
60: CCCNS(=O)(=O)c1ccc(CCC(=O)NCCc2ccc(OC)c(OC)c2)cc1
    8.3	2.0	1.3	-29.3	5.6	4945	11.9
61: CCCC(C)C(=O)Nc1ncc(S(=O)(=O)c2ccc([N+](=O)[O-])cc2)s1 (centres undefined)
    45.9	35.9	1.8	-2.0	18.8	?	2.0
62: CCOC(=O)CC1Sc2ccccc2NC1=O (centres undefined)
    -1.9	-2.4	-9.0	-37.8	11.7	11399	5.6
63: CCCCn1c2ccc(F)cc2c2nnc(SCCN3CCCCC3)nc21
    -1.6	15.3	20.2	-11.1	9.9	3995	8.4
64: CC(=O)c1ccc(NC(=O)c2noc3c2CCC3)cc1
    4.9	3.4	-3.2	20.0	-9.1	4032	-3.7
65: CC(=O)C12OC(C)(C)OC1CC1C3CCC4=CC(=O)C=CC4(C)C3(F)C(O)CC12C (centres undefined)
    4.0	8.3	.	-9.6	1.1	2952	12.6
66: CCOC(=O)N1CCN(C(=O)c2cc(-c3ccncc3)nc3ccccc23)CC1
    2.0	3.6	29.5	-19.4	-9.3	6730	6.4
67: CCCc1cc(=O)oc2cc(C)cc(OCC(=O)Nc3ccc(CN4CCOCC4)cc3)c12
    -3.6	3.6	-14.8	-8.5	-8.8	5871	-5.5
68: O=C(COc1ccc([N+](=O)[O-])cc1)N/N=C/c1ccccn1
    .	.	-5.2	-12.8	.	3617	.
